# Rango complex inh – inhibitors of Rango-importin beta complex formation. Q14974. Rango CFP/YFP FRET sensor + importin beta, 45 min. Potency, µM (series often up to 92.2 µM), without a hit: top-dose inhibition of complex formation. 340,000 tested, 0.031% active. AID 540263; active = rising FRET ratio curve, often small or poorly fitted; inconclusive = mostly compound fluorescence or quenching in the first reads; inactive = flat curves in all reads;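 further: potency means the concentration at half of the fitted maximal effect; 0% = DMSO wells and 100% = buffer wells lacking importin beta; nearly all actives have a fitted effect of over 15% in size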
# Target sequence (Q14974 whole entry, looked up): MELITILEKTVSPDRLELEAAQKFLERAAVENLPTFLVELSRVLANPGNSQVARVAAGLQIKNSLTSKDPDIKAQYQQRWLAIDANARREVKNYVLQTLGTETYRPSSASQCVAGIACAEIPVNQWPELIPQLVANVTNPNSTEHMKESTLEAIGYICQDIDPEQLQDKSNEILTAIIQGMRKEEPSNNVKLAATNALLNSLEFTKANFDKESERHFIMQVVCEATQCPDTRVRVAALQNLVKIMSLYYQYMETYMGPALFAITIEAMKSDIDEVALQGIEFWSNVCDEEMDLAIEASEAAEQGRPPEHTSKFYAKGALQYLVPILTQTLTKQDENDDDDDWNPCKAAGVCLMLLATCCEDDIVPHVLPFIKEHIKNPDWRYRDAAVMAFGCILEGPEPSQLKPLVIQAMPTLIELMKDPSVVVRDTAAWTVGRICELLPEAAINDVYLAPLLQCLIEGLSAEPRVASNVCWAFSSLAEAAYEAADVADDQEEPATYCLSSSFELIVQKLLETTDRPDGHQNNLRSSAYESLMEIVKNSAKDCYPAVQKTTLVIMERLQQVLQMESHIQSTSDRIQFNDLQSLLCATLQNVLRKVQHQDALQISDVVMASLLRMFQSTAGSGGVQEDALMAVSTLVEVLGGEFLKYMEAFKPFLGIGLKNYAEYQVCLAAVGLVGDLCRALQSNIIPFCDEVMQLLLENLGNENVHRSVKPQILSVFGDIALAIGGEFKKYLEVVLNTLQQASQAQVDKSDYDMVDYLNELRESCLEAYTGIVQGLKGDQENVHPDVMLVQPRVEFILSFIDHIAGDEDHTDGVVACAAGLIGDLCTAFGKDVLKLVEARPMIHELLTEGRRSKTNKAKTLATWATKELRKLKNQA
#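 FRET biosensor (snurportin 1 IBB flanked by EYFP and cerulean), 50 nM, with compound 5 min, then 0.125 microM importin beta in PBS, 1 mM DTT, 0.02% Tween-20, 0.1% BSA. CFP/YFP ratio read after 45 min at room temperature; pre-read flags interference.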
# Rango release inh – inhibition of RanGTP-driven Rango-importin beta dissociation; AID 540253; O95149+P62826; Biochemical FRET Rango-importin beta, RanGTP-induced dissociation; 340,000 tested, 0.071% active; Potency, µM (highest dose often 46.1 µM), without a hit: at the top dose activity change, negative = inhibition; active means falling FRET ratio curve, often poorly fitted, with flat reads before Ran was added; inconclusive means other falling curves, or compound fluorescence or quenching; inactive means flat or rising ratio curve;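 further: potency means the concentration at half of the fitted maximal effect; % of control where 0% means no effect; nearly all actives have a fitted effect of over 45% in size; -100% = wells without RanGTP and RCC1; the record marks most hits as doubtful in a second field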
#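 Rango (0.1 uM)–importin beta (0.25 uM) complex; RanGTP-RCC1 trigger; 45 min RT; CFP/YFP FRET read.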
# miR-21 reporter – miR-21 reporter, rising signal; HeLa miR-21 FLuc reporter, luciferase, 48 h; Potency, µM (series often up to 38.3 µM), without a hit: at the highest dose reporter change, positive = more light; 340,000 tested, under 10 active; AID 2288; active = well fitted rising curve with a large enough effect; inconclusive = small, poorly fitted or top-dose-only effect; inactive = no such curve, though single readings can be large or run the other way;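 further: % of control where 0% means no effect; miR-21 action dims this reporter so a rising signal means less miR-21 action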
#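 HeLa miR-21-FLuc reporter line, endogenous miR-21; 2000 cells/well in DMEM/10% FBS; compound titration up to ~40uM final, 48 h, 37 degree Celsius; luciferase detection reagent, 15 min lysis, CCD luminescence.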
# GLA inh pH 4.5 – blocks human alpha-galactosidase A at pH 4.5; 230,000 tested, under 10 active; P06280; activity change, negative = inhibition, % at 105 µM; AID 1467; purified enzyme, 4-MU-alpha-Gal fluorescence, pH 4.5; inconclusive = small, poorly fitted or top-dose-only inhibition, or a rising curve; inactive = flat fitted curve, though single readings scatter; no compound was filed as active;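 further: 0% = full activity with enzyme and -100% = basal without enzyme; dose as in the result columns while the protocol names 77 µM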
# Active calls of the source: *; ? = inconclusive; / = no result given; & = joins results of further samples. The list is partial; the hit share may differ from the screen's.
# Start of the listing, in advance, two compounds:
Molecule,Rango complex inh,Rango release inh,GLA inh pH 4.5,miR-21 reporter
CC(C)C[C@@]12C(=O)N(c3cccc(Cl)c3)C(=O)N1[C@H](c1ccc(Br)cc1)[C@@H]1C(=O)N(C(C)(C)C)C(=O)[C@@H]12,-0.2%,-18%,/,/
O=C(COc1ccc(Cl)cc1)NC1CCSC1=O (centres undefined),0.7%,17%,6,-14%

# This part in full (from the top)
Molecule,Rango complex inh,Rango release inh,GLA inh pH 4.5,miR-21 reporter
CC(C)C[C@@]12C(=O)N(c3cccc(Cl)c3)C(=O)N1[C@H](c1ccc(Br)cc1)[C@@H]1C(=O)N(C(C)(C)C)C(=O)[C@@H]12,-0.2%,-18%,/,/
O=C(COc1ccc(Cl)cc1)NC1CCSC1=O (centres undefined),0.7%,17%,6,-14%
COCCNC(=O)CS(=O)Cc1nc(-c2ccc(OC)cc2)oc1C (centres undefined),0.1%,-11%,-4,-7%
CCc1nnc(NC(=O)c2oc3ccccc3c2COC(C)C)s1,1.5%,-4%,/,/
Cc1ccc(SCC(=O)Nc2ccc(S(N)(=O)=O)cc2)cc1,-0.8%,5%,5,-7%
CCc1ccc(OC(C)C(=O)Nc2ccc(S(=O)(=O)Nc3nccs3)cc2)cc1 (centres undefined),0.2%,0%,/,-4%
CCCn1nnnc1SCC(=O)NNC(=O)c1ccco1,-0.1%,13%,-1,2%
COCc1ccc(C(=O)N2CCC(CCC(=O)Nc3cccc(C)c3)CC2)s1,4.3%,-11%,/,-3%
Cc1cc(C)nc(NC=C2C(=O)OC(C)(C)OC2=O)n1,-3.9%,5%,-20,-1%
O=C1CC(C(=O)Nc2ccccc2)N=C(N2CCOCC2)N1 (centres undefined),0.5%,13%,-7,-3%
Cc1cn([C@H]2C[C@H](O)[C@@H](CCC(=O)NCCc3cnc[nH]3)O2)c(=O)[nH]c1=O,-0.4%,-16%,/,/
Cc1ccc2c(c1)c1c(n2CC(O)CN2C(=O)CNC2=O)C(=O)CCC1 (centres undefined),-7.6%,18%,-2,-6%
CN1CCN(c2ccccc2NC(=O)c2ccc(-c3ccccc3[N+](=O)[O-])o2)CC1,-1.1%,-2%,/,1%
Cc1cc(C)c2nc(NCCCNC(=S)NCCCN(C)C)c(C#N)cc2c1,?,?,-3,?
CC(C)C[C@H](N)c1nnc(S(=O)(=O)Cc2ccc(F)cc2)o1,2.0%,6%,-3,?
CCN1C(=O)C2CCCCN2c2ccc(C(=O)NCCOC)cc21 (centres undefined),-1.2%,-2%,/,-1%
CCn1cc2nc(SCC(=O)Nc3ccc(OC)cc3OC)n(Cc3ccc(OC)cc3)c(=O)c2n1,-3.2%,-13%,/,21%
CCOC(=O)Nc1ccc2c(COC(=O)CNS(=O)(=O)c3ccc(NC(C)=O)cc3)cc(=O)oc2c1,-4.6%,-11%,-11,-35%
Cc1ccc(NC(=O)CN(C)S(=O)(=O)c2ccc(Br)s2)cc1F,?,-3%,5,4%
CNC(=O)c1c(NC(=O)CS(=O)(=O)c2ccc(F)cc2)sc(C)c1C,-2.9%,-2%,/,/
CC[C@@]1(C(=O)OC)N[C@H](CN(C)C(=O)Nc2ccc(C(F)(F)F)cc2)[C@@H]2C(=O)N(C)C(=O)[C@@H]21,0.4%,-8%,/,/
COc1cc(C(=O)COC(=O)c2cnc(C)cn2)ccc1OC(F)F,?,-9%,/,-5%
COC(=O)c1ccc2c(=O)n(Cc3ccco3)c(SCC(=O)Nc3ccccc3Cl)nc2c1,-3.5%,18%,-2,-4%
Cc1cc(Br)ccc1SCC(=O)OCC(=O)NCc1ccc2c(c1)OCO2,-0.2%,-14%,-2,-6%
CCc1ccc(NC(=O)c2cc(C(C)C)on2)cc1,0.5%,7%,2,-26%
NC(=O)c1ccc(NC(=O)c2ccccc2S(=O)(=O)c2ccccc2[N+](=O)[O-])cc1,?,10%,1,-1%
CCCN1CCC(=O)NC1=S,-2.0%,-6%,/,/
O=C(NCc1ccccc1)c1ccc(CN2CCOCC2)cc1,-2.6%,-6%,7,-11%
O=C(NNc1ccccc1)C(=O)NNS(=O)(=O)c1ccc([N+](=O)[O-])cc1,1.4%,-1%,-6,16%
CC(C)C[C@@H](CO)N(Cc1ccccc1)S(=O)(=O)N(Cc1ccccc1)[C@H](CO)CC(C)C,3.5%,-17%,/,/
COc1ccc(NC(=O)Cn2c(=O)n(-c3ccc(CC(=O)NCc4ccco4)cc3)c(=O)c3ccccc32)cc1,3.1%,20%,-1,-1%
COC(=O)[C@H](CCSC)NC(=O)NCCc1ccc(F)cc1,4.4%,0%,-3,-2%
O=C(COc1ccc(/C=N/NC(=O)C(=O)N2CCCCC2)cc1)Nc1ccccc1Cl,0.8%,0%,-6,-14%
COc1ccc(/C(N)=N/OC(=O)C2CCCCC2)cc1OC,2.4%,?,/,-72%
CC(C)(CNC(=O)CCNC(=O)c1ccc(Br)cc1)N1CCOCC1,-3.5%,-3%,/,/
O=C(N/N=C\c1ccc2c(c1)OCO2)c1ccco1,0.0%,-12%,-12,-52%
CC1CC(=O)Nc2ccccc2N1C(=O)CN1CCN(c2ccccc2)CC1 (centres undefined),2.5%,11%,5,-1%
COc1ccccc1C(=O)Nc1cccc(NC(=O)c2ccccc2OC)n1,0.3%,-20%,/,-11%
CCn1nnnc1SCC(=O)c1ccc2c(c1)OCCO2,-3.9%,-2%,-1,-18%
CCOc1cc(C2C(C(=O)N3CCCCC3)=C(C)NC3=C2C(=O)CCC3)cc(Br)c1O (centres undefined),1.6%,4%,?,-1%
CCOc1ccccc1NC(=O)CN(C)S(=O)(=O)c1cccc2nsnc12,-2.1%,-4%,5,-11%
CCCCCCCCOC(=O)CCn1[nH]c(=O)c2ccccc2c1=O,2.4%,-6%,14,-3%
COc1ccc(N(CC(=O)N/N=C(\C)c2cccs2)S(=O)(=O)c2ccccc2)cc1Cl,/,/,2,-1%
Cc1cc(C(F)(F)F)nn1-c1nc(-c2ccco2)cc(C(F)(F)F)n1,-3.2%,22%,-2,-2%
CSc1ccccc1NC(=O)COC(=O)c1ccccc1O,-1.5%,-17%,8,1%
O=C(N/N=C/c1ccc2ccccc2c1)c1ccc(COc2ccc3c(c2)CCC3)o1,?,?,3,-18%
N#CCCN(C(=O)c1ccco1)c1ccccc1,-0.8%,-8%,2,-8%
CSCCC(NC(=O)c1cccc([N+](=O)[O-])c1)C(=O)OCC(=O)N1CCCC1=O (centres undefined),6.6%,-3%,/,/
COc1ccc(C2CC(c3ccc(C)cc3)Nc3nc(N)nn32)cc1 (centres undefined),?,12%,2,-17%
Cc1cn(-c2ccc(Br)cc2)[nH]c1=O,-0.6%,5%,-13,-42%
Oc1c(N=Nc2ccccc2)sc2ccccc12,?,-11%,-7,-11%
Cc1ccc(OCC(=O)NS(=O)(=O)c2ccc(Cl)cc2)cc1,-2.8%,-13%,/,-4%
Cc1c(-c2nnc(-c3ccc(C(F)(F)F)cc3)o2)cnn1-c1ccccc1,0.2%,-1%,6,-3%
COc1ccc(CNC(=O)c2c(-c3cc(Cl)c(OC)c(Cl)c3)noc2C)cc1,-2.3%,-5%,-17,1%
Cc1nc2ccc(NC(=O)C3CCCCC3)cc2s1,-0.3%,1%,/,/
Cc1ccc(COc2ccsc2C(=O)NN)cc1,-1.5%,-4%,1,-18%
COc1cc(OC)c(OC)cc1/C=N/NC(=O)C[n+]1ccccc1,-3.6%,-9%,-11,-1%
Fc1ccc(C(c2nnnn2Cc2cccs2)N2CCN(C3CCCCC3)CC2)cc1 (centres undefined),1.0%,8%,-20,15%
COc1ccc(-c2nc(N)n[nH]2)cc1,-3.2%,3%,-8,-12%
Cc1ccc(-c2nn(-c3ccccc3)cc2C=O)o1,-0.8%,21%,12,10%

# Next part:
Molecule,Rango complex inh,Rango release inh,GLA inh pH 4.5,miR-21 reporter
COc1ccc(-c2csc(NC(=O)c3c(OC)cccc3OC)n2)cc1,-2.4%,-7%,/,-18%
Cc1ccsc1C(C(=O)NC1CCCCC1)N(C(=O)Cc1cccs1)C1CC1 (centres undefined),-4.3%,-10%,5,-2%
O=C(C1CCN(S(=O)(=O)c2ccccc2)CC1)N1CCN(Cc2ccccc2)CC1,-0.5%,3%,/,6%
Cc1cc(C(=O)c2ccccc2)cc(C)c1O,0.3%,-8%,/,/
O=C1Nc2ccc(S(=O)(=O)NCC3CCCO3)c3cccc1c23 (centres undefined),?,?,3,-7%
CC(C)C(=O)Nc1ccc(S(=O)(=O)Nc2ccccn2)cc1,-1.8%,4%,0,-3%
NC1(C#Cc2ccc3oc(=O)c(-n4cc(C5(O)CCCCC5)nn4)cc3c2)CCCCC1,?,-6%,/,/
CC(C)Cn1c(N)c(C(=O)COC(=O)c2ccc(O)cc2O)c(=O)n(C)c1=O,2.3%,8%,/,/
COC(=O)Cc1cc(=O)n(-c2nc3ccccc3[nH]2)[nH]1,-0.9%,3%,2,-6%
COc1ccc(COC(=O)CCN=C2NS(=O)(=O)c3ccccc32)cc1F,4.7%,5%,/,/
COC(=O)COc1ccc(-c2nn(C)c(=O)c3ccccc23)cc1,0.7%,-8%,0,-6%
CC(=O)C1C(c2ccccc2OC(F)F)NC(=O)NC1(O)C(F)(F)F (centres undefined),?,-6%,4,-1%
CCN(C(=O)C(C)Sc1nnc(-c2ccncc2)n1C)C1CCCCC1 (centres undefined),1.5%,1%,/,/
CCCCOc1ccccc1/C=N/NC(=O)CC#N,-0.6%,0%,3,-2%
Cc1cc(Cl)ccc1NNC(=O)c1c(C)noc1C,-1.5%,4%,1,-14%
CCCCCCCC(=O)NNC(=O)Cc1ccccc1,-2.5%,0%,?,-1%
COc1ccccc1N1CCN(CC(=O)c2c(C)n(C)c3ccccc23)CC1,1.9%,-3%,-2,-4%
O=C(NNC(=O)c1cc(-c2ccncc2)nc2ccccc12)c1ccccc1O,-6.1%,2%,/,/
Cc1ccc2nc(-c3ccc(N4C(=O)CC(N5CCN(CCO)CC5)C4=O)cc3)sc2c1 (centres undefined),4.6%,0%,4,-49%
Cc1cc(C)cc(NC(=O)CCC(=O)N2CCSc3ccccc32)c1,4.3%,-3%,/,17%&26%
O=C(CCS(=O)(=O)c1ccccc1)N1CCN(c2ccccc2F)CC1,-1.1%,2%,/,-38%
O=C(CNC(=O)c1ccco1)NNC(=O)c1n[nH]c(=O)c2ccccc12,-1.8%,5%,/,/
CO/N=C(/CS(=O)c1ccc(Br)cc1)c1ccc(OC)cc1 (centres undefined),-0.4%,-10%,-1,-5%
CCCCn1c2c(c(=N)c3ccccc31)CCC2,5.5%,52%,-1,?
CCN(CC(=O)NCc1cccs1)C(=O)Cc1ccc(C)c(C)c1,2.2%,-16%,/,/
Cc1oc(-c2ccc(Cl)cc2)nc1CN1CCC(C(=O)NCCCN2CCOCC2)CC1,-4.3%,7%,4,-21%
CCN(CC)CCn1c2c(c(SCC(=O)Nc3ccc(C(C)C)cc3)nc1=O)CCC2,-2.9%,-1%,/,/
Cc1ccc(S(=O)(=O)N2CCC(=O)N(C(COCc3ccccc3)C(C)C)CC2)cc1 (centres undefined),0.8%,9%,-12,-10%
CC(C)(C)C1CCC(OCC(O)CN2CCN(Cc3ccccc3)CC2)CC1 (centres undefined),5.5%,0%,2,2%
O=C(Nc1nnc(-c2ccncc2)o1)C1CCCCC1,0.6%,2%,-2,-11%
CN(C(=O)c1cccc(NC(=O)Cc2ccc([N+](=O)[O-])cc2)c1)C1CCCC1,4.2%,12%,/,/
CCN(C(=O)CN1CCN(c2ccc(O)cc2)CC1)c1c(N)n(Cc2ccccc2)c(=O)[nH]c1=O,-3.3%,1%,8,-3%
COc1cc([N+](=O)[O-])ccc1NC(=O)COC(=O)C=C(C)C,-4.2%,3%,-11,-9%
CSCCC(NS(=O)(=O)c1ccc2c(c1)OCCO2)C(=O)NCCc1ccccn1 (centres undefined),1.9%,13%,3,-12%

# Assay outcomes from PubChem.
